Screening results deposited in PubChem by several laboratories.
MLL AF4-AF9 inh – inhibitors of human MLL-AF4/AF9 interaction | P42568 | AlphaScreen, biotin-AF4 peptide binding to FLAG-AF9 | inhibition, % at 10 µM | 0.47% of 350,000 active | AID 651704;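 active = every replicate reaching a set inhibition limit, whatever the replicate mean, cut at about 25% in these data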;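 note: 0% = plate neutral control median and 100% = total signal loss; the record names both 10 and 1 µM as test concentration; the first replicate is given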
Target sequence (P42568 whole entry, looked up): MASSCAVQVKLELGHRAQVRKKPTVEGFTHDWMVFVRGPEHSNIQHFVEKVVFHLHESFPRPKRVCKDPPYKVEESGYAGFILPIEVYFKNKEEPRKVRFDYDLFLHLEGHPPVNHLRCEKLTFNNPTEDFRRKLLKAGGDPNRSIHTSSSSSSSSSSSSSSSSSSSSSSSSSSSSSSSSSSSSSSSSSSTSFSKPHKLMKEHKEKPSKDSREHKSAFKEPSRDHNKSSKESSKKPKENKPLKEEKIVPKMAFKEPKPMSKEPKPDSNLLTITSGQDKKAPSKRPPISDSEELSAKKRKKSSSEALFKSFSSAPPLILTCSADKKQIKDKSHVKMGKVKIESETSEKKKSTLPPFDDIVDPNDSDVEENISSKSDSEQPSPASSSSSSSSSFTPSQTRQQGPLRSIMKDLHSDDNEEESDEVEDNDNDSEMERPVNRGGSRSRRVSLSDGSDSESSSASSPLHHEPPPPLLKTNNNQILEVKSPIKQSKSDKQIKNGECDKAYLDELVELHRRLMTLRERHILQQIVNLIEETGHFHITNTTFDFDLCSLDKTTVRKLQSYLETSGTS
UCH37 DUB inh – blocks the human deubiquitinase UCH37. 0.33% of 330,000 active. Q9Y5K5. purified proteasome/UCH37, Ub-AMC cleavage fluorescence. inhibition, % (test concentration not listed);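 active = mean of two replicates above 20%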;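 note: 0% = compound-free wells with enzyme and 100% = wells lacking proteasome; stock transfer was 100 nL into about 20 µL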
Target sequence (Q9Y5K5 whole entry, looked up): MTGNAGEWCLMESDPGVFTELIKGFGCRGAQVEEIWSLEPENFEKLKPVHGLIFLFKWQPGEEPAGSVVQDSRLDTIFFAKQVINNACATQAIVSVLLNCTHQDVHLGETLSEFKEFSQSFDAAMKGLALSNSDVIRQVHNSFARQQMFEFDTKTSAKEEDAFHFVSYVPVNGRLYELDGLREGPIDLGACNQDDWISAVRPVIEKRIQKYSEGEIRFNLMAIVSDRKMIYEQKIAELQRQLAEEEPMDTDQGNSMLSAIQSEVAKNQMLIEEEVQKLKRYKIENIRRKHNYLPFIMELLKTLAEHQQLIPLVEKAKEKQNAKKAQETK
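System: Proteasome-associated human UCH37 deubiquitinase; Input: 0.15 nM proteasome in added enzyme buffer; Also added: Ub-AMC substrate from 1 µM stock; Incubation: 30 min compound-proteasome preincubation then 25 min substrate reaction, room temperature; Detection: fluorescence, ex 355 nm, em 460 nm; Read-out: % inhibition of Ub-AMC cleavage fluorescence; Benchmarks: no-proteasome and no-compound wells.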
Ecoli growth – blocks Escherichia coli growth; OD600, 23 h; stronger effect = lower value; 0.21% of 330,000 active; OD600 absorbance (no concentration beside the values);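 active = OD600 absorbance below the run mean of sample wells minus 3.6 SD, in any replicate, cut at about 0.56 in these data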;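 note: stock transfer was 300 nL into about 60 µL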
Ecoli rRNA inh – inhibitors of bacterial rRNA selective over humanized ribosomes; 1.6% of 350,000 active; E. coli WT GFP vs humanized-ribosome RFP mutants, fluorescence, 24 h; stronger effect = lower value; DMSO median 0, no signal -100; GFP signal change (wild-type ribosome), % (concentration not given with the values);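 active = significant combined selectivity score with lowered wild-type GFP, culture density cut under 30%, mutant RFP and density less affected; inactive = any of these conditions unmet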; note: one replicate is shown; some compounds called inactive have numbers as strong as hits
T cruzi inh – T. cruzi replication inhibition; inhibition, % (concentration not given with the values); AID 1885; T. cruzi beta-gal in NIH3T3, luminescence, 90 h; 1.4% of 300,000 active;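 active = mean inhibition across valid replicates above about 55%, limit read from the data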;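 note: signal also drops with host cell toxicity which is not excluded here; 0% = plate median of DMSO wells and 100% = zero luminescence signal; higher percent means less beta-gal luminescence so fewer parasites; stock transfer was 50 nL into about 50 µL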
FGF22 binding – binders of recombinant human FGF22 by thermal shift | SYPRO orange fluorescence; percent of sucrose octasulfate shift, DMSO zero | calls only at 9.99 µM | 1.5% of 340,000 active;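 active = melting point raised past a set limit in the mean and every replicate; three in four hits are not shown here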
Target sequence (Q9HCT0 whole entry, looked up): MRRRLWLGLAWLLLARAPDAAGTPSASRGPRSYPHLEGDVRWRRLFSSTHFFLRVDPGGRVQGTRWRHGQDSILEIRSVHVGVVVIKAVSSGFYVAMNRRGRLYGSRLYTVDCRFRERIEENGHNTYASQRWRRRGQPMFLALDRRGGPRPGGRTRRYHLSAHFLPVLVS
Beta cell apopt – blocks beta cell apoptosis. INS-1E cytokine-induced death, ATP luminescence, 48 h; percent of positive-control rescue, neutral wells zero. protection from apoptosis, % (concentration not given with the values). 0.8% of 300,000 active. AID 435005;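 active = all replicates at 75% or more, or half of them and the mean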;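 note: 0% = cytokine-treated negative control wells and 100% = positive control rescue; higher means more ATP so stronger rescue from cytokine killing; wells of about 40 µL received 100 nL stock; the first replicate is given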
Bfl-1 A1 inh – inhibitors of the anti-apoptotic protein A1, read as caspase activation; caspase activation, % (test concentration not listed); 0.066% of 330,000 active; MEF A1-2A-BIM cells, Caspase-Glo 3/7 luminescence, 3 h; percent of clofoctol response, vehicle zero;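 active = over half of replicate activation scores above 10%, or exactly half above 10 with the replicate mean above 10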;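 note: wells of about 30 µL received 50 nL stock; many hits fall short of the cut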
Ecoli rRNA inh OD600 – further read-out of Ecoli rRNA inh, marked with its call; OD600 change, %; measured here: OD600 growth;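 optical density of the mix in the first replicate; 0 = DMSO median and -100 = no signal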
Ecoli rRNA inh RFP – further read-out of Ecoli rRNA inh, marked with its call; RFP signal change, %; measured here: RFP humanized mutant strains;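 first replicate; 0 = DMSO median and -100 = no signal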
* hit, by the source's call; i = inactive; . = not tested or not shown. Not all compounds are listed; the hit share may differ from the screen's.

Values run as follows: MLL AF4-AF9 inh	UCH37 DUB inh	Ecoli growth	Ecoli rRNA inh	Ecoli rRNA inh OD600	Ecoli rRNA inh RFP	T cruzi inh	FGF22 binding	Beta cell apopt	Bfl-1 A1 inh
> C/C=C(/C)C(=O)Nc1cccc(C2=NOC3(C2)C[C@@H](C(N)=O)N(C(=O)CCCCC)C3)c1 (some centres undefined)
→ 1.3	1.1	.	-12	-11	16	-4	i	-4	0.0
> CCc1ccc2c(c1)C(NC(C)=O)C(=O)N2CCN1CCOCC1 (centres undefined)
→ 16	.	.	19	25	0.7	-12	i	-4	0.7
> CCOc1ccc(OCCC(=O)OCC(=O)Nc2ccc(N3CCOCC3)cc2)cc1
→ 0.7	5.5	0.71	14	16	-1.7	-6	i	-10	-0.1
> COc1ccc(C(=O)C2CN(c3ccccc3)CC2c2ccc(Cl)cc2)cc1 (centres undefined)
→ .	4.7	0.83	.	.	.	18	.	10	0.0
> COc1ccccc1N(CC(=O)NC1CCCC1)C(=O)CCC(=O)Nc1cc(C)on1
→ .	5.5	0.72	.	.	.	-2	.	.	0.1
> COc1ccc2oc(C(=O)OCC(=O)N(C)c3c(N)n(Cc4ccccc4)c(=O)[nH]c3=O)c(C)c2c1
→ -1.8	-24	0.68	4	13	2.2	2	i	.	0.6
> COc1ccc(-c2noc(CCCC(=O)Nc3ccc(C(N)=O)cc3)n2)cc1OC
→ -0.2	5.4	0.66	7	9	2.2	-4	i	0	-0.9
> CCOC(=O)C(NC(=O)c1ccc(OC)cc1)(OCC1(CC)COC1)C(F)(F)F (centres undefined)
→ .	-0.3	0.7	3	4	-2.2	-7	.	0	-0.3
> Cc1cccc(OCC(=O)OC(C)C(=O)Nc2ccc(S(=O)(=O)N3CCCCC3)cc2)c1 (centres undefined)
→ 1.1	1.9	0.62	1	3	1.0	-7	i	2	1.2
> O=C(Nc1ccccc1)N1CCCN(Cc2ccccc2F)C1
→ .	-0.4	0.7	.	.	.	11	.	0	0.5
> COc1ccccc1/C=N/NC(=O)CCSc1ccccc1
→ -0.3	.	.	-11	-16	-2.8	-17	i	2	0.5
> Cn1nnnc1Sc1ncnc2scc(-c3cccc(C(F)(F)F)c3)c12
→ -29	1.0	0.63	5	1	5.5	.	i	-2	-0.1
> COCC1CCN(Cc2c(C(=O)N3CCN(C4CCCCC4)CC3)nc3ccccn23)C1 (centres undefined)
→ 2.4	-24	0.65	20	11	1.3	28	i	-3	1.2
> O=C(C1=C(O)C(=O)N(CC2CCCO2)C1c1ccccc1[N+](=O)[O-])c1ccco1 (centres undefined)
→ -2.8	12	0.68	9	11	-2.0	5	i	.	0.6
> Cc1ccc(CNC(=O)COC(=O)c2cncc(Br)c2)cc1
→ -0.4	2.9	0.74	10	2	3.4	-1	i	-5	-0.7
> CCOc1ccc(/C=C/C(=O)N(CC)CC(=O)Nc2ccc3c(c2)OCCO3)cc1OC
→ 6.8	-12	0.68	-2	0	0.7	-4	i	-4	-0.4
> COc1ccc(C(=O)NCC(=O)OCC(=O)N2CCC(C)CC2)cc1OC
→ -0.3	3.4	0.69	12	8	-3.6	-14	i	-2	0.3
> Cc1ccc(-c2cc(C(=O)NC3CCN(Cc4ccccc4)CC3)c3ccccc3n2)cc1
→ -6.0	-35	0.68	1	-1	0.6	45	i	5	-0.4
> Cc1c(C(=O)O)oc2c(F)cccc12
→ -1.2	2.3	0.67	13	2	-0.4	-11	i	1	2.4
> O=C(CCN1C(=O)C2CC=C(Cl)CC2C1=O)NCc1ccccc1 (centres undefined)
→ .	-6.3	0.74	.	.	.	-9	.	3	1.5
> O=S(=O)(c1ccc(F)cc1)N1CCN(CC(O)COCc2ccccc2)CC1 (centres undefined)
→ 1.1	1.1	0.68	-6	-4	2.9	.	i	.	.
> COc1ccc(CN2C=C3C(=O)C(C)(OC(=O)C4CCCC4)C(=O)C=C3C=C2c2ccsc2)cc1 (centres undefined)
→ 3.3	3.8	0.7	7	14	-0.9	32	i	0	-0.1
> CCc1cccc(C)c1NC(=O)CCOc1ccccc1
→ 2.0	-0.2	0.69	16	9	-2.6	-3	i	2	-1.2
> S=c1nc(-c2ccc(Cl)cc2)[nH][nH]1
→ 7.0	3.2	0.66	-28	-25	-0.4	-1	i	-4	0.0
> CCCS(=O)(=O)N1CCN(Cc2ccc(OCc3ccccc3)c(OC)c2)CC1
→ .	1.8	0.69	.	.	.	-7	.	-4	0.6
> Cc1ccc2cc(NC(=O)c3ccccc3)ccc2n1
→ -0.1	-0.3	0.61	-4	26	-0.8	-22	i	4	-6.1
> COc1ccc(NC(=O)c2cc(-c3cc(C)ccc3O)n[nH]2)cc1Cl
→ .	2.0	0.75	.	.	.	-2	.	2	-0.6
> COC(=O)C1CCCN1S(=O)(=O)c1ccccc1NC(=O)c1cc(OC)c(OC)c(OC)c1 (centres undefined)
→ -0.2	2.4	0.68	-17	-2	-6.3	36	i	.	-0.6
> Cn1c(=O)n(Cc2ccc(F)cc2)c(=O)c2c1nc1n2CCCN1Cc1ccccc1
→ .	1.9	0.75	.	.	.	16	.	6	-0.1
> CC(=O)NC1C(OCc2ccccc2)OC(CO)C(OC(C)=O)C1OC(C)=O (centres undefined)
→ .	2.4	0.67	.	.	.	-11	.	1	0.5
> COc1cc(C(=S)N2CCOCC2)ccc1O
→ -2.1	0.2	0.67	18	24	2.6	-14	i	0	0.4
> Cc1cc(/C=C(/C#N)C(=O)O)c(C)n1CCC(C)C
→ 1.6	13	0.68	.	.	.	13	i	9	0.6
> Oc1ccc(Cc2ccccc2Cl)c(O)c1
→ 2.7	3.2	0.61	-59	-78	-15	.	i	.	.
> COc1ccccc1N1CCN(C(=O)CSc2nc(C)c(Cc3ccccc3)c(=O)[nH]2)CC1
→ .	-1.3	0.68	.	.	.	2	.	1	-0.1
> Cc1nc2ccccn2c1-c1nnco1
→ .	-3.7	0.64	.	.	.	0	.	-6	0.0
> O=C(CNCCc1ccc(F)cc1)Nc1cc(F)ccc1F
→ -1.4	1.4	0.66	-4	2	0.4	-4	i	-9	0.4
> O=C(NCc1ccccc1)c1cc(-c2cccs2)on1
→ -19	4.0	0.69	16	13	-11	-5	i	6	0.0
> c1ccc(-c2cc(-c3nnc4sc(-c5ccccn5)nn34)[nH]n2)cc1
→ .	-1.3	0.69	.	.	.	23	.	-2	-0.1
> O=C(Nc1ccc(S(=O)(=O)N2C[C@@H]3C[C@@H](C2)c2cccc(=O)n2C3)cc1)c1ccc(F)cc1
→ .	-1.3	0.69	1	2	0.8	.	i	1	-0.5
> CON(C)c1nc(OCCNC(=O)OCc2ccc(Cl)cc2C)nc(N(C)C)n1
→ .	1.8	0.68	.	.	.	3	.	0	-0.4

Individual results from the results shown:
Value of `COc1ccc(-c2noc(CCCC(=O)Nc3ccc(C(N)=O)cc3)n2)cc1OC` in Bfl-1 A1 inh: -0.9
Value of `COc1ccccc1/C=N/NC(=O)CCSc1ccccc1` in MLL AF4-AF9 inh: -0.3

(cont.)
Values run as follows: MLL AF4-AF9 inh	UCH37 DUB inh	Ecoli growth	Ecoli rRNA inh	Ecoli rRNA inh OD600	Ecoli rRNA inh RFP	T cruzi inh	FGF22 binding	Beta cell apopt	Bfl-1 A1 inh
> Cc1[nH]c2ccccc2c1C(=O)C(=O)NCCCc1ccccc1
→ 0.7	5.8	0.74	-31	-34	-3.7	12	i	.	0.4
> C=CCn1c(=O)c2c(nc3n2CCCN3Cc2ccccc2)n(C)c1=O
→ -0.6	2.8	0.66	-1	17	-0.7	22	i	-1	0.6
> COC(=O)c1ccccc1NC(=O)CCCN1C(=O)C(c2ccccc2)Oc2cccnc21 (centres undefined)
→ -5.1	1.9	0.74	-7	-24	-0.9	2	i	-3	1.4
> COc1cc(C2C(C(=O)OCCC#N)=C(C)NC3=C2S(=O)(=O)c2ccccc23)cc(OC)c1OC (centres undefined)
→ .	-6.5	0.71	.	.	.	-3	.	-12	-0.5
> CCOC(=O)c1cc2n(n1)C(C(F)(F)C(F)(F)F)CC(C)N2 (centres undefined)
→ .	1.7	0.67	.	.	.	5	.	7	-2.6
> Cc1ccc(NC(=O)CSCC(=O)NCCc2ccccc2)cc1
→ 2.3	0.5	0.71	6	-1	2.0	-3	.	0	0.8
> O=C1ON=C(c2cccc([N+](=O)[O-])c2)/C1=C/c1ccc(O)cc1
→ 0.2	0.8	0.71	23	8	2.0	-7	.	-2	-0.7
> O=C(COc1ccccc1Cl)N1CCc2ccccc21
→ -1.3	5.1	0.64	-1	-7	-1.9	-8	i	.	.
> COC(=O)c1ccc(NS(=O)(=O)c2ccc(S(=O)(=O)N3CCOCC3)cc2)cc1
→ 0.0	3.1	0.68	.	.	.	.	i	4	0.8
> C=CCOC(=O)C1=C(C)NC(SCC(N)=O)=C(C#N)C1c1cccs1 (centres undefined)
→ .	-4.0	0.68	.	.	.	9	.	-2	1.3
> Cc1cc(NC(=O)CN2C(=O)S/C(=C\c3ccccc3)C2=O)no1
→ -24	.	.	5	12	-4.0	2	i	-4	1.1
> O=C(CCS(=O)(=O)Cc1ccc(Cl)cc1)NCCCN1CCN(c2ccccc2F)CC1
→ .	-0.2	0.67	.	.	.	-17	.	-2	-0.6
> O=C(CSc1nc2ncc(Br)cc2[nH]1)Nc1ccccc1-c1ccccc1
→ -1.2	1.5	0.6	-18	-9	-1.9	-6	i	1	0.5
> N=c1nc(N)nc2n1NC(c1ccc(F)cc1)=CS2
→ -11	0.0	0.68	-7	-6	-6.0	30	i	-3	-0.9
> CC1(C)C(=O)C2(C(=O)NCc3ccccc3)CCC1C2 (centres undefined)
→ .	4.9	0.74	2	11	-3.5	6	.	-1	-0.2
> COc1ccc(NC(=O)N2CCCC2C(=O)Nc2ccc(C)cc2C)cc1 (centres undefined)
→ 3.9	1.9	0.65	6	7	2.5	-17	i	-11	0.9
> Cc1ccccc1NC(=O)c1cccc(C(F)(F)F)c1
→ 1.5	2.8	0.61	6	0	4.5	1	i	-7	-0.1
> Cn1cnc([N+](=O)[O-])c1Oc1cccc2ccccc12
→ .	1.1	0.7	.	.	.	-12	.	-11	-0.2
> CCCCN(C(=O)c1cc(-c2ccco2)nc2ccccc12)c1c(N)n(CCCC)c(=O)[nH]c1=O
→ -0.1	-96	0.68	5	-6	0.3	6	i	-5	0.4
> CC(=O)N1/C(=C/c2ccc(N(C)C)cc2)C(=O)c2ccccc21
→ 44*	4.5	0.69	-5	-4	1.4	25	i	.	.
> Cc1ccc2c(c1)N(C(=O)CCC(=O)NCCCN1CCN(C)CC1)CCO2
→ 4.7	1.7	0.64	0	0	-1.7	2	i	-6	.
> NCCCC[C@@H](C(=O)N1CCNCC1)n1cc([C@@H](N)CO)nn1
→ .	-0.8	.	.	.	.	-9	.	-6	0.3
> Cc1nc(NC(=O)C2CC2)sc1C(=O)Nc1cccc(Cl)c1
→ -4.4	3.7	0.69	-4	5	-0.4	-18	i	6	-1.8
> CCCC[n+]1ccn(-c2nc3c([N+](=O)[O-])cccc3n2C)c1
→ -1.8	5.0	0.69	1	3	-1.0	3	i	.	-0.1
